miR-21 FLuc = qHTS Assay for Modulators of miRNAs and/orActivators of miR-21; 340,000 tested, under 10 active; Potency, µM (series often up to 38.3 µM), for the others: at the top dose reporter change, positive = more light; HeLa miR-21 FLuc reporter, luciferase, 48 h; active = well fitted rising curve with a large enough effect; inconclusive = small, poorly fitted or top-dose-only effect; inactive = no such curve, though single readings can be large or run the other way;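 also: % of control where 0% means no effect; miR-21 action dims this reporter so a rising signal means less miR-21 action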
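HeLa cells stably expressing CMV-driven firefly luciferase with a downstream miR-21 binding sequence, endogenously expressing miR-21, were treated with titrations (up to about 40uM final) for 48 hours at 37 degree Celsius. Luciferase luminescence was read after lysis.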
GLA inh pH 4.5 = qHTS Assay for Inhibitors of Human alpha-Galactosidase at pH 4.5; purified enzyme, 4-MU-alpha-Gal fluorescence, pH 4.5; activity change, negative = inhibition, % at 105 µM; 230,000 tested, under 10 active; inconclusive = small, poorly fitted or top-dose-only inhibition, or a rising curve; inactive = flat fitted curve, though single readings scatter; no compound was filed as active;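 also: 0% = full activity with enzyme and -100% = basal without enzyme; dose as in the result columns while the protocol names 77 µM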
Rango dissoc inh = qHTS Assay for Inhibitors of RanGTP induced Rango (Ran-regulated importin-beta cargo) - Importin beta complex dissociation; Snurportin-1 (Homo sapiens) + GTP-binding nuclear protein Ran (Homo sapiens) + Importin …; Biochemical FRET Rango-importin beta, RanGTP-induced dissociation; Potency, µM (series often up to 46.1 µM), for the others: top-dose activity change, negative = inhibition; 0.071% of 340,000 active; AID 540253, 2011; active means falling FRET ratio curve, often poorly fitted, with flat reads before Ran was added; inconclusive means other falling curves, or compound fluorescence or quenching; inactive means flat or rising ratio curve;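 also: potency is read from the fitted curve at half-maximal effect; % of control where 0% means no effect; nearly all actives have a fitted effect of over 45% in size; -100% = wells without RanGTP and RCC1; the record marks most hits as doubtful in a second field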
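Recombinant Rango FRET biosensor (EYFP–snurportin 1 IBB–cerulean CFP10) at 0.1 uM premixed with 0.25 uM importin beta in PBS, 1 mM DTT, 0.02% Tween-20, 0.1% BSA. Compound added 5 min; RanGTP-RCC1 (0.6 uM Ran, 2 mM GTP, 0.2 uM RCC1) then triggers release, read at 45 min.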
Rango-impB inh = qHTS Assay for Inhibitors of Rango (Ran-regulated importin-beta cargo) - Importin beta complex formation | Rango CFP/YFP FRET sensor + importin beta, 45 min | 0.031% of 340,000 active | Potency, µM (highest dose often 92.2 µM), for inactives: at the top dose inhibition of complex formation | Importin subunit beta-1 (Homo sapiens), Q14974; active = rising FRET ratio curve, often small or poorly fitted; inconclusive = mostly compound fluorescence or quenching in the first reads; inactive = flat curves in all reads;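 also: potency is read from the fitted curve at half-maximal effect; 0% = DMSO wells and 100% = buffer wells lacking importin beta; nearly all actives have a fitted effect of over 15% in size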
Target sequence (Q14974 whole entry, looked up): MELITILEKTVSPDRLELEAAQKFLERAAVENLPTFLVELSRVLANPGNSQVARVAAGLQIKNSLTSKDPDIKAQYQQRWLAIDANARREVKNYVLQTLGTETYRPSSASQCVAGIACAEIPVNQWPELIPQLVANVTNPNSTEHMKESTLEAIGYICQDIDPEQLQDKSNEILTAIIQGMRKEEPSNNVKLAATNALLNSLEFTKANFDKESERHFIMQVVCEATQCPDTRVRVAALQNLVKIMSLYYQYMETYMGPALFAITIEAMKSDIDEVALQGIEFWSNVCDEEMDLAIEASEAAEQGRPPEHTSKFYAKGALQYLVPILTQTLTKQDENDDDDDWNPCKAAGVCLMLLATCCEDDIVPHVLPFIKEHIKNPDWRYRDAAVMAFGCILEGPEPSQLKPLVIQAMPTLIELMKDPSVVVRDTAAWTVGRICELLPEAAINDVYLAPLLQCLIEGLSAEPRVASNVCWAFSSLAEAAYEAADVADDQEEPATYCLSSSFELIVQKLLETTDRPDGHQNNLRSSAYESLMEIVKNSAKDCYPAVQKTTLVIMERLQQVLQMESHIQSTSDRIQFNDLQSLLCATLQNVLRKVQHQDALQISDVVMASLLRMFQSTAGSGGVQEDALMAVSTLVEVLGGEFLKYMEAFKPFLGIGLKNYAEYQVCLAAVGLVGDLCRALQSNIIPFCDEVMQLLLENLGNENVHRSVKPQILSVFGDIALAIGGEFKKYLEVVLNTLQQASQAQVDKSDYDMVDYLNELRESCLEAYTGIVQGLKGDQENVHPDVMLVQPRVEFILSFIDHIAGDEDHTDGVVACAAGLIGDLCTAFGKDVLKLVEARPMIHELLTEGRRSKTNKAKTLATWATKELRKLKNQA
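Inhibition scored from the CFP 486 nm/YFP 530 nm FRET ratio 45 min after adding 0.125 microM importin beta to 50 nM Rango biosensor preincubated 5 min with compound (room temperature, PBS with DTT, Tween-20, BSA). No-importin wells as positive control.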
Starred values were filed as active, the others as inactive. Only part of the results is shown; count on the stated rates, not on these rows.

Screening CCn1ccnc1CN(C)Cc1c(C(=O)N2C[C@@H](C)O[C@@H](C)C2)nc2ccc(Cl)cn12 returned miR-21 FLuc -2%, Rango dissoc inh 10% and Rango-impB inh -0.5%.
Cc1cc(C)n(CC(=O)NNC(=O)CCCOc2ccc(Cl)cc2C)n1 was read as miR-21 FLuc 4%, Rango dissoc inh 0% and Rango-impB inh 0.0%.
Screening Cc1cc2oc(=O)cc(Cn3ccnc3)c2cc1Cl returned miR-21 FLuc -7%, Rango dissoc inh 9% and Rango-impB inh 1.8%.
Screening O=C(c1cc2ccccc2o1)n1nnc2ccccc21 returned miR-21 FLuc 1%, GLA inh pH 4.5 6, Rango dissoc inh 2% and Rango-impB inh 6.0%.
`O=C(CN1CCN(S(=O)(=O)c2ccccc2)CC1)Nc1ccc(N2CCOCC2)cc1` gave miR-21 FLuc -10%, GLA inh pH 4.5 -4, Rango dissoc inh 9% and Rango-impB inh 0.2%.
`Cc1occc1C(=O)O/N=C(\N)c1ccccc1` gave miR-21 FLuc -22%, GLA inh pH 4.5 3, Rango dissoc inh 1% and Rango-impB inh -3.0%.
Screening CN(C(=O)c1cc(Cl)c2c(c1)OCCO2)c1c(N)n(Cc2ccccc2)c(=O)[nH]c1=O returned Rango dissoc inh -13% and Rango-impB inh -2.7%.
CC(C)C[C@]1(c2ccccc2)ON(c2ccccc2C(F)(F)F)C1=O was read as Rango dissoc inh 26% and Rango-impB inh 4.2%.
Screening COCCNCc1ccc(Cl)cc1Cl returned miR-21 FLuc -2%, GLA inh pH 4.5 3, Rango dissoc inh -12% and Rango-impB inh 6.8%.
Screening OCCNCCSc1nc(C2CCCCC2)n(-c2ccccc2Cl)n1 returned miR-21 FLuc -10%, GLA inh pH 4.5 -10, Rango dissoc inh 2% and Rango-impB inh 3.6%.

The last five records of the section above open the next one:
`Cc1occc1C(=O)O/N=C(\N)c1ccccc1` gave miR-21 FLuc -22%, GLA inh pH 4.5 3, Rango dissoc inh 1% and Rango-impB inh -3.0%.
Screening CN(C(=O)c1cc(Cl)c2c(c1)OCCO2)c1c(N)n(Cc2ccccc2)c(=O)[nH]c1=O returned Rango dissoc inh -13% and Rango-impB inh -2.7%.
CC(C)C[C@]1(c2ccccc2)ON(c2ccccc2C(F)(F)F)C1=O was read as Rango dissoc inh 26% and Rango-impB inh 4.2%.
Screening COCCNCc1ccc(Cl)cc1Cl returned miR-21 FLuc -2%, GLA inh pH 4.5 3, Rango dissoc inh -12% and Rango-impB inh 6.8%.
Screening OCCNCCSc1nc(C2CCCCC2)n(-c2ccccc2Cl)n1 returned miR-21 FLuc -10%, GLA inh pH 4.5 -10, Rango dissoc inh 2% and Rango-impB inh 3.6%.
`CSCC[C@H](NC(=O)[C@@H]1CSC2c3ccccc3C(=O)N21)C(=O)NC1CCCC1` (some centres undefined) gave miR-21 FLuc -2%, Rango dissoc inh -3% and Rango-impB inh -2.6%.
`Cc1ccc(C(=O)OCC(=O)Nc2ccc(Cl)cn2)cc1S(=O)(=O)N1CCOCC1` gave Rango dissoc inh 19% and Rango-impB inh inconclusive.
For Cc1ccccc1-c1nc(CS(=O)(=O)CC(=O)NCCN2CCOCC2)c(C)o1 the results were miR-21 FLuc -1%, GLA inh pH 4.5 4, Rango dissoc inh 26% and Rango-impB inh 1.8%.
`COC(=O)c1cccc(NC(=O)c2ccc3c(c2)C(=O)N(C(C)(C)C)C3=O)c1` gave miR-21 FLuc -1%, Rango dissoc inh 9% and Rango-impB inh 5.0%.
For Cc1cc2c(c(=O)o1)C1(C(=O)N(C)c3ccccc31)C(C#N)=C(N)O2 (centres undefined) the results were miR-21 FLuc -2%, GLA inh pH 4.5 1, Rango dissoc inh 24% and Rango-impB inh 6.0%.
Screening CC(C)OC(=O)CC1C(=O)NCCN1C(=S)NC(=O)c1ccc(F)cc1 (centres undefined) returned miR-21 FLuc -1%, GLA inh pH 4.5 -1, Rango dissoc inh -2% and Rango-impB inh 0.7%.
CNC(=O)Nc1cccc(-c2cc(-c3c(Cl)cccc3Cl)no2)c1 was read as miR-21 FLuc 15%, GLA inh pH 4.5 -14, Rango dissoc inh -4% and Rango-impB inh -0.1%.
Screening O=c1nc(-c2ccccc2)n(-c2ccccc2)[nH]1 returned miR-21 FLuc -12%, GLA inh pH 4.5 5, Rango dissoc inh -14% and Rango-impB inh -3.3%.
Screening COCCNC(=O)CSc1nnc(-c2ccc(C)cc2)c(-c2ccc(C)cc2)n1 returned miR-21 FLuc -7%, GLA inh pH 4.5 -3, Rango dissoc inh -28% and Rango-impB inh -6.2%.
Screening CCN(CC(=O)Nc1ccc(NC(C)=O)cc1)C(=O)C1COc2ccccc2O1 (centres undefined) returned miR-21 FLuc -4%, Rango dissoc inh 0% and Rango-impB inh 0.9%.
Screening COc1ccccc1/C=C/C(=O)NC(=S)N1CCOCC1 returned miR-21 FLuc -10%, Rango dissoc inh 7% and Rango-impB inh -2.1%.
CSc1cccc(NC(=S)N(CCN(C)C)C(C)c2ccccn2)c1 (centres undefined) was read as miR-21 FLuc 21%, GLA inh pH 4.5 -17, Rango dissoc inh 1% and Rango-impB inh 0.6%.
CCn1c(C)cc(C)c(C#N)c1=O was read as miR-21 FLuc -2%, GLA inh pH 4.5 4, Rango dissoc inh inconclusive and Rango-impB inh 1.3%.
O=C(NCCCn1ccnc1)c1ccccc1F was read as miR-21 FLuc -3%, Rango dissoc inh 5% and Rango-impB inh 4.9%.
Screening C=CCOc1ccc(C2N3CC4(C)CN2CC(CCC)(C3)C4=O)cc1 (centres undefined) returned miR-21 FLuc -8%, GLA inh pH 4.5 0, Rango dissoc inh -24% and Rango-impB inh -0.2%.
`COc1ccc2[nH]c(=O)c(CN(Cc3cccnc3)S(=O)(=O)c3ccccc3F)cc2c1` gave miR-21 FLuc 17%, Rango dissoc inh -1% and Rango-impB inh -3.1%.
Screening COc1cccc(CNC(=O)C23CN(Cc4ccccc4)CC2C(c2ccc([N+](=O)[O-])cc2)=NO3)c1 (centres undefined) returned miR-21 FLuc 6%, GLA inh pH 4.5 -5, Rango dissoc inh -9% and Rango-impB inh inconclusive.
O=c1cc(/C=C/c2cccs2)[nH]c2ccccc12 was read as miR-21 FLuc 16%, GLA inh pH 4.5 -10, Rango dissoc inh -8% and Rango-impB inh inconclusive.
Screening O=C1CC(c2ccco2)Cc2nc(NCC3CCCO3)ncc21 (centres undefined) returned miR-21 FLuc -15%, GLA inh pH 4.5 10, Rango dissoc inh 7% and Rango-impB inh -1.9%.
`CCC1=NC(c2ccc(OC)c(OC)c2)N(O)C1(C)C` (centres undefined) gave miR-21 FLuc 0%, GLA inh pH 4.5 0, Rango dissoc inh 1% and Rango-impB inh -3.9%.
CN(CC(=O)c1c(N)n(C)c(=O)n(C)c1=O)c1ccccc1 was read as miR-21 FLuc 4%, GLA inh pH 4.5 3, Rango dissoc inh 5% and Rango-impB inh -0.7%.
O=C(c1c(F)cccc1F)N1CCC(n2nnc3cc(C(F)(F)F)ccc32)CC1 was read as miR-21 FLuc 6%, GLA inh pH 4.5 -16, Rango dissoc inh -22% and Rango-impB inh -6.7%.
Screening Cc1c(C(=O)O)sc2nc(CSc3nnc(-c4ccc(F)cc4)n3C)[nH]c(=O)c12 returned miR-21 FLuc 0%, GLA inh pH 4.5 0, Rango dissoc inh -7% and Rango-impB inh inconclusive.
COc1ccc(C(=O)N/N=C/c2ccc(N3CCOCC3)s2)cc1OC was read as Rango dissoc inh inconclusive and Rango-impB inh inconclusive.
`COc1ccc(C2c3[nH]c4ccccc4c3C[C@H]3C(=O)N(C4CCN(Cc5ccccc5)CC4)CC(=O)N23)c(OC)c1` (some centres undefined) gave miR-21 FLuc 4%, Rango dissoc inh 4% and Rango-impB inh -0.2%.
For CC(C)N(CCNC(=O)c1ccc(CS(=O)(=O)c2c(Cl)cccc2Cl)o1)Cc1ccccc1 the results were miR-21 FLuc 4%, Rango dissoc inh -7% and Rango-impB inh -0.2%.
Cc1nn(C)cc1C1C(C#N)=C(N)N(c2cccnc2)C2=C1C(=O)CCC2 (centres undefined) was read as miR-21 FLuc 12%, GLA inh pH 4.5 -1, Rango dissoc inh -7% and Rango-impB inh -2.1%.
Screening Cc1ccc(NC(=O)CSc2ccc(S(=O)(=O)N3CCCC3)cn2)cc1F returned Rango dissoc inh 6% and Rango-impB inh 0.1%.
Screening COc1ccccc1S(=O)(=O)N1CCn2cccc2C1C (centres undefined) returned Rango dissoc inh -15% and Rango-impB inh -5.3%.
`Cc1nc2ccc(NC(=O)N(C)c3ccccc3)cc2s1` gave miR-21 FLuc -66%, GLA inh pH 4.5 -4, Rango dissoc inh -1% and Rango-impB inh -2.0%.
For COc1ccc(F)cc1COc1nc(C)nc2ccccc12 the results were miR-21 FLuc -1%, Rango dissoc inh -6% and Rango-impB inh 0.9%.
Screening COc1ccc(/C=N/NC(=O)c2ccn[nH]2)cc1COc1ccc(F)cc1 returned miR-21 FLuc -25%, GLA inh pH 4.5 5, Rango dissoc inh -1% and Rango-impB inh -3.1%.
CCn1c(CNc2nc(-c3ccccc3)cs2)nnc1SCC(=O)NCc1ccccc1 was read as miR-21 FLuc -6%, GLA inh pH 4.5 -3, Rango dissoc inh -5% and Rango-impB inh inconclusive.
For CN(C)S(=O)(=O)N1CCN(c2ccc([N+](=O)[O-])c(NC3CC3)c2)CC1 the results were miR-21 FLuc -15%, GLA inh pH 4.5 -18, Rango dissoc inh 8% and Rango-impB inh 3.5%.
Screening CC1=C(C(=O)OCc2ccccc2)C(c2ccc(Cl)cc2)NC(=O)N1CCCC(=O)O (centres undefined) returned miR-21 FLuc -14%, Rango dissoc inh 1% and Rango-impB inh -4.9%.
`Cc1nc(CNC(=O)c2cc(COc3ccc(F)cc3Cl)on2)cs1` gave miR-21 FLuc -13%, GLA inh pH 4.5 -6, Rango dissoc inh -5% and Rango-impB inh -0.4%.
CN(C)c1ccc(/C=N/NC(=O)c2ccc3nc[nH]c3c2)cc1 was read as miR-21 FLuc -26%, GLA inh pH 4.5 -11, Rango dissoc inh -32% and Rango-impB inh inconclusive.
COc1ccc(S(=O)(=O)NCC2CCCN(Cc3ccc(OC)cc3F)C2)cc1 (centres undefined) was read as miR-21 FLuc 2%, Rango dissoc inh -4% and Rango-impB inh 1.9%.
CC(C)Cc1cc(C(=O)O)n[nH]1 was read as miR-21 FLuc 3%, GLA inh pH 4.5 3, Rango dissoc inh 11% and Rango-impB inh -0.9%.
`CCC(C)NC(=S)Nc1ccc(C(=O)OC)cc1` (centres undefined) gave miR-21 FLuc -8%, GLA inh pH 4.5 -5, Rango dissoc inh -2% and Rango-impB inh 5.0%.
Screening O=C(Cc1ccc(S(=O)(=O)N2CCOCC2)s1)Nc1ccc2c(c1)CCC2 returned miR-21 FLuc -27%, GLA inh pH 4.5 -8, Rango dissoc inh -4% and Rango-impB inh -0.1%.
Screening CCOc1ccc(C(=S)NC2CCCCC2)cc1OCC returned miR-21 FLuc -18%, Rango dissoc inh 14% and Rango-impB inh 0.8%.
For COc1ccc(F)cc1S(=O)(=O)NCC(=O)NCc1cc(=O)n(C)c(=O)n1C the results were miR-21 FLuc 3%, Rango dissoc inh 6% and Rango-impB inh -1.6%.
Screening COc1ccc(NC(=O)C2COc3ccccc3O2)cc1S(=O)(=O)N1CCOCC1 (centres undefined) returned Rango dissoc inh -6% and Rango-impB inh -2.2%.
For CCOC(=O)CC1CCCCN1C(=O)c1cc(COc2cccc3cnccc23)on1 (centres undefined) the results were miR-21 FLuc inconclusive, Rango dissoc inh 10% and Rango-impB inh -0.2%.
For Cc1ccc(-n2nc(C)c(NC(=O)CCl)c2C)cc1C the results were miR-21 FLuc 28%, GLA inh pH 4.5 -2, Rango dissoc inh 5% and Rango-impB inh 1.7%.
For O=C(Nc1ccccc1)N1CCN(c2ccccc2)CC1 the results were Rango dissoc inh -16% and Rango-impB inh 0.7%.
